Source: PubChem (National Center for Advancing Translational Sciences (NCATS))
HPGD inh = qHTS Assay for Inhibitors of HPGD (15-Hydroxyprostaglandin Dehydrogenase). 15-hydroxyprostaglandin dehydrogenase [NAD(+)] (Homo sapiens), P15428. purified HPGD, NADH fluorescence kinetic, PGE2 substrate. Potency, µM, for the others: top-dose activity change, negative = inhibition, usual class: inhibitors. 4.3% of 150,000 active; active = well fitted inhibition curve with a large enough effect (not every such curve was filed as active); inconclusive = small, poorly fitted or top-dose-only effect, or another doubt; inactive = no such curve, though single readings can be large or run the other way;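 further: top concentration of the series not given in the record; plate controls included wells without enzyme; inactives centre near -10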
Target sequence (P15428 whole entry, looked up): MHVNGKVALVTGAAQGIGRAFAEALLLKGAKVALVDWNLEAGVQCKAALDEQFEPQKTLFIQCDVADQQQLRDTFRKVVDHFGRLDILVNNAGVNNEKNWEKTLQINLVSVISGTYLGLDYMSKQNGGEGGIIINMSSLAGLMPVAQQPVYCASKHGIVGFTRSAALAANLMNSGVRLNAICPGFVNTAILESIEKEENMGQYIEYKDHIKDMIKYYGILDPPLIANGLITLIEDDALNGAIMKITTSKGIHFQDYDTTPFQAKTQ
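20 nM HPGD preincubated 15 min at room temperature with compound in 50 mM Tris-HCl pH 8, 0.01% Tween 20. Started with 1 mM NAD+ and 30 uM prostaglandin E2; NADH fluorescence (360/450 nm) read 5 times over 30-s intervals, last minus first.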
* = called active by the depositor; ? = inconclusive. On the % scale 0 is the no-effect control and ±100 the full control effect; potency means the concentration at half of the fitted maximal effect. Only part of the results is shown; count on the stated rates, not on these rows.

no. | mol | HPGD inh
1 | COC(C(=O)Nc1ccc(S(=O)(=O)Nc2ccc(F)cc2)cc1)c1ccccc1 (stereo not drawn) | -13.2%
2 | CCCN1CCN(CCCNC(=O)c2cc3c(=O)n(C)c4ccccc4c3n2C)CC1 | -17.5%
3 | CCC1(C)Cc2ccccc2-c2nc3n(c(=O)c21)CCCCC3 (stereo not drawn) | -7.7%
4 | O=C(N/N=C/c1ccco1)c1cccc(N2CCCC2=O)c1 | -9.4%
5 | CCCCC/C=C\C/C=C\C/C=C\CCCCC(=O)NCC(=O)O | -3.5%
6 | COc1ccc(-c2cc(C(F)F)nc(-n3nc(C)cc3C)n2)cc1 | ?
7 | CCOC(=O)c1cnn2c(C(F)(F)F)cc(-c3ccccc3)nc12 | ?
8 | O=C(COC(=O)c1ccc(S(=O)(=O)N2CCc3ccccc3C2)cc1)NC(=O)NCc1ccco1 | -14.0%
9 | CCCCOc1cccc(C(=O)N(Cc2ccco2)C2CCS(=O)(=O)C2)c1 (stereo not drawn) | 0.2%
10 | O=C(NCc1cccc(CNC(=O)c2ccco2)c1)c1ccco1 | 14.1µM*
11 | Cc1ccc(C(=O)O/N=C/c2c(Cl)n(C)c3ccccc23)cc1 | -14.4%
12 | Cc1nn(-c2cc(N3CCOCC3)ccc2[N+](=O)[O-])c(=O)c2ccccc12 | -11.3%
13 | COC(=O)c1ccc(Cn2nc(C(F)(F)F)cc2C)cc1 | -0.1%
14 | CC1CCCN(C(C(=O)Nc2ccc(C(C)C)cc2)c2ccc3c(c2)OCO3)C1 (stereo not drawn) | -16.6%
15 | O=C(C1CCCN(c2ncccn2)C1)N1CCc2ccccc21 (stereo not drawn) | -12.2%
16 | COc1ccc(CC(=O)N2CCN=C2SC)cc1 | 0.8%
17 | Cc1ccc(-c2ccc(/C=C(\C#N)C(=O)Nc3cc(C)nn3-c3ccccc3)o2)cc1 | -7.8%
18 | CC(C)Oc1ccc(CCc2n[nH]c(=S)n2Cc2ccccc2)cc1 | 10µM*
19 | Cc1nc2nc(Cc3ccccc3)nn2c(C)c1Cl | -16.6%
20 | N#CCCn1cnc2c(=S)nc[nH]c21 | -13.5%

Further compounds
no. | mol | HPGD inh
21 | Cc1c(NC2(c3nnnn3-c3ccc(Br)cc3)CCCCC2)c(=O)n(-c2ccccc2)n1C | -3.8%
22 | O=C(Nc1ccccc1)N1CCN(c2ncccn2)CC1 | -9.4%
23 | CCOc1ccc(OCC)c(NC(=O)C2CCN(S(=O)(=O)c3cccc4nonc34)CC2)c1 | -11.2%
24 | CCOc1ccccc1N1CCN(C(=O)CC(C)C)CC1 | -2.9%
25 | COc1ccc(S(=O)(=O)N(C)CC(=O)NCc2cccnc2)cc1OC | -1.9%
26 | Cc1cc(C(F)(F)F)nn1CC(=O)N1CCCCC1C (stereo not drawn) | 2.7%
27 | COc1cc(-c2nnc(COC(=O)c3c4c(nc5ccccc35)CCCC4)o2)cc(OC)c1OC | -19.8%
28 | CCOc1cc(/C=N/Nc2nc(-c3cccc(S(=O)(=O)N4CCCC4)c3)cs2)ccc1O | ?
29 | Cc1ccccc1Cn1cccc1/C=C1/C(=N)N2C=CSC2=NC1=O | -17.3%
30 | O=C(Nc1cccc2[nH]ncc12)c1ccc(F)cc1 | ?
31 | COCCN1CC(=O)N(c2cccc(C)c2C)C(c2ccc(Cl)cc2)C1=O (stereo not drawn) | 1.2%
32 | COc1ccccc1NC(=O)C1=C(C)Nc2nnnn2C1c1ccccc1OC (stereo not drawn) | -5.9%
33 | CCC(SC1=N/C(=C/c2ccccc2OC)C(=O)N1c1ccccc1)C(=O)Nc1cc(C)on1 (stereo not drawn) | -16.4%
34 | O=C(Nc1cc(C(F)(F)F)ccc1Cl)C1CCN(c2nnc(-n3cccc3)s2)CC1 | -16.8%
35 | CN(C)CCNC(=O)Nc1cccc(Cl)c1Cl | -3.0%
36 | CCCC(=O)NC(C)c1nc2ccccc2n1C (stereo not drawn) | -16.8%
37 | O=C(c1cc2sccc2n1Cc1ccc(F)cc1)N1CCc2ccccc21 | -15.9%
38 | COCCN(CCOC)Cc1cc(=O)oc2cc3c(cc12)CCC3 | -11.1%
39 | COc1ccc(Cl)cc1C(=O)N(Cc1nc(-c2cccc(C)c2)no1)C(C)C | -2.9%
40 | CCOc1ccccc1C1C(C(=O)Nc2ccc(OC)cc2)=C(C)Nc2nc(CCCO)nn21 (stereo not drawn) | -25.4%

Other results follow.
no. | mol | HPGD inh
41 | CC(C)COc1ccc(-c2nnc(-c3ccco3)o2)cc1 | ?
42 | CCC(C)NCCCCOc1ccc(Br)cc1 (stereo not drawn) | 1.0%
43 | CC1CC(C)(C)NC(=S)N1CC(=O)N(C)Cc1ccccc1 (stereo not drawn) | -9.8%
44 | CCN(CC(=O)Nc1cccc(OC)c1)C(=O)C1CCN(C(=O)Nc2ccccc2)CC1 | -4.4%
45 | Cc1ccc2[nH]c(=O)c(-c3nc4cc(C)ccn4c3NCc3ccco3)cc2c1 | -16.2%
46 | Cc1cccc(OCC(=O)Nc2ccc(N3CCN(C(=O)c4ccco4)CC3)cc2)c1 | -0.3%
47 | COc1cccc(/C=C/C(=O)Nc2ccc(OC)nc2)c1 | -15.7%
48 | COc1ccc(C2C(C(=O)c3sc(C)nc3C)=C(O)C(=O)N2CCN(C)C)cc1OC (stereo not drawn) | -11.1%
49 | O=C(CCCCCN1C(=O)c2ccccc2C1=O)NC1CCCC1 | 4.47µM*
50 | COc1ccc(NC(=O)c2nnn(Cc3cccc(F)c3)c2N)c(OC)c1 | -97.8%
51 | CC1CC(=O)Nc2ccccc2S1(=O)=O (stereo not drawn) | 0.4%
52 | CCc1cccc(NC(=O)Cn2c(=O)oc3cc(S(=O)(=O)N4CCOCC4)ccc32)c1 | -16.5%
53 | CCn1c(SCC(=O)c2c[nH]c3ccccc23)nnc1-c1cccs1 | -10.5%
54 | Cc1cc(C)c(C)c(C(=O)C2OC(=O)C(C)(C)C(=O)C2(C)C)c1C (stereo not drawn) | 1.7%
55 | COc1cccc([C@@H]2Oc3ccc(Br)cc3C(=O)[C@H]2OC(=O)Nc2cc(OC)c(OC)c(OC)c2)c1 | -8.7%
56 | CCc1ccc(NC(=O)N(CCN(C)C)C(C)c2cccnc2)cc1 (stereo not drawn) | -11.2%
57 | O=C(CCCSc1ccccc1)Nc1nc(-c2ccccn2)cs1 | ?
58 | O=C(O)c1cccc(NC(=O)C2CC(=O)N(Cc3ccccc3)C2)c1 (stereo not drawn) | -6.2%
59 | OCCN(Cc1ccccc1)Cc1cccc(F)c1 | -5.8%
60 | CSc1ccc(/C=N/NC(=O)CN2CCN(Cc3ccc(Cl)cc3)CC2)cc1 | -28.9%

Following part
no. | mol | HPGD inh
61 | Cc1noc(C)c1C(=O)N1CCC[C@@]2(CCN(c3cccc(-c4ccccc4)c3)C2)C1 | -14.5%
62 | CCNC(=O)/N=C1/NC(=O)C(C(C)C)O1 (stereo not drawn) | -3.2%
63 | Cc1ccc2c(c1)N[C@H](c1ccc(C(=O)O)cc1)c1cccn1-2 | ?
64 | Cc1ccc([N+](=O)[O-])cc1S(=O)(=O)NCc1cccnc1 | -12.2%
65 | Cn1nnnc1SCC(=O)NCc1ccccc1 | -3.8%
66 | Cn1c(NC(=O)c2cccs2)c(-c2cccs2)c(=O)c2ccccc21 | -4.9%
67 | CCOC(=O)c1c(C)[nH]c(C(=O)Cn2nnc(-c3ccccc3)n2)c1C | -16.7%
68 | COC(=O)c1cc(=O)n(Cc2ccc3c(c2)OCO3)c(=Nc2ccc(F)c(Cl)c2)s1 | -10.7%
69 | O=C(NCc1ccco1)C1CCCN1S(=O)(=O)c1ccc2ccccc2c1 (stereo not drawn) | -18.2%
70 | O=C1CC(N2CCN(c3ccccc3)CC2)C(=O)N1CCc1ccccc1 (stereo not drawn) | 2.2%
71 | CCN=C1S/C(=C\c2ccc(O)c(OCC)c2)C(=O)N1CC | -16.3%
72 | CCCCC(CC)CNC(=O)c1cccs1 (stereo not drawn) | -14.3%
73 | O=C(NCCc1ccccc1)C1(c2ccccc2)CC1(Cl)Cl (stereo not drawn) | -1.4%
74 | CC(C)C(=O)N(Cc1ccc2c(c1)OCO2)Cc1ccccn1 | -8.3%
75 | Fc1cc(Br)ccc1NC(=S)NCCc1ccccc1 | -8.6%
76 | Cc1ccc(OCCCn2c(CO)nc3ccccc32)cc1 | -2.9%
77 | Cc1nc(NC(C)c2ccccc2)c2c3c(sc2n1)CCC3 (stereo not drawn) | -6.1%
78 | CC(C)(O/N=C(\C(=O)N[C@@H]1C(=O)N2C(C(=O)[O-])=C(C[n+]3ccccc3)CS[C@@H]12)c1csc(N)n1)C(=O)O | -12.2%
79 | CCCCCCn1ccc(=N)cc1 | -4.1%
80 | O=C(O)CC(C(=O)OCC1CCCO1)N1CCOCC1 (stereo not drawn) | 1.6%

Next part
no. | mol | HPGD inh
81 | CCOC(=O)CP(=O)(c1ccccc1)c1ccccc1 | -3.4%
82 | COc1cccc(NS(=O)(=O)c2cn(C)c(=O)n(C)c2=O)c1 | -1.3%
83 | CCOC(=O)c1sc(C)c(C(=O)NCC(C)(C)CN(C)C)c1N | -25.9%
84 | O=S(=O)(NCCc1ccc2c(c1)OCCO2)c1cccs1 | -12.7%
85 | CCC(Sc1nc2ccc(C)cc2[nH]1)C(=O)O (stereo not drawn) | -8.1%
86 | O=CN1N=C(c2ccccc2)CC1c1ccccc1[N+](=O)[O-] (stereo not drawn) | 4.5%
87 | CCOC(=O)c1sc(NC(=O)Nc2ccc(F)cc2)nc1C | ?
88 | Cc1cc(/C=C2\SC(=S)NC2=O)c(C)n1C1CC1 | ?
89 | CC1CCN(C(=O)Cn2c(=O)n(Cc3ccc4c(c3)OCO4)c(=O)c3ccccc32)CC1 | -7.7%
90 | Cc1cc(C)c2nc(NNC(=O)c3cc(-c4cccs4)nc4ccccc34)sc2c1 | -15.6%
91 | COC(=O)c1cc2c(ccn2-c2ccc(F)cc2)n1Cc1ccc(C#N)cc1 | -3.4%
92 | CCOc1ccccc1NC(=S)NCC1CCCO1 (stereo not drawn) | -6.6%
93 | COc1nc(N)c(S(=O)(=O)c2ccccc2C)cc1C#N | ?
94 | Cc1nc2ccccc2n1CC(=O)OCC(=O)Nc1ccc2c(c1)OCCO2 | -7.7%
95 | Cc1ccsc1C(=O)Nc1ccccc1N1CCOCC1 | -16.6%
96 | Nc1nc(Br)c2ccccc2c1-c1ccc(F)cc1 | ?
97 | COc1cccc(C2CC(c3ccccc3)n3ncnc3N2)c1 (stereo not drawn) | -5.0%
98 | CC(C)(C)C(=O)CNS(=O)(=O)c1ccc(S(=O)(=O)NC2CCCC2)cc1 | -1.7%
99 | O=C(Cn1cc(C(=O)c2cccs2)c2ccccc21)NCc1cccs1 | -5.2%
100 | CCOCCCNC(=O)C1CCCN1C(=O)NC1CCCCC1 (stereo not drawn) | -14.9%

Additional entries.
no. | mol | HPGD inh
101 | O=c1ccn(C2OC(COP(=O)(O)OP(=O)(O)OP(=O)(O)O)C(O)C2O)c(=O)[nH]1 (stereo not drawn) | -8.5%
102 | O=C(NCCN1CCOCC1)c1cccc(S(=O)(=O)N2CCCCCC2)c1 | -7.3%
103 | Clc1ccc(Cn2ncc3c(N4CCCC4)ncnc32)cc1 | -15.8%
104 | CC1CCN(CC(C)OC(=O)c2ccc3c(c2)OCCO3)CC1 (stereo not drawn) | -12.2%
105 | C/C(=N/NC(=O)CN1CCN(S(=O)(=O)c2ccc(Br)cc2)CC1)c1ccco1 | -0.8%
106 | CC(=O)Nc1ccc(S(=O)(=O)NC(C)C(=O)OCC(=O)NC2CCCC2)cc1 (stereo not drawn) | -4.3%
107 | O=C(Nc1ccccc1)c1cc2c(=O)c3ccccc3oc2nc1C(F)(F)F | -0.2%
108 | CCN(CC)S(=O)(=O)c1cccc(-c2nnc(SC(C)C(N)=O)n2CCc2ccccc2)c1 (stereo not drawn) | -1.6%
109 | CCC(C)(C(=O)NC1CCCCC1)N(Cc1ccco1)C(=O)CC1NC(=O)NC1=O (stereo not drawn) | 7.5%
110 | CN=C(Nc1ccccc1)SC1CC(=O)N(c2ccc(C(=O)OC)cc2)C1=O (stereo not drawn) | -24.2%
111 | Cc1ccc(N2C(N)=C(C#N)C(c3cccnc3)C3=C2CC(C)(C)CC3=O)cc1 (stereo not drawn) | -15.8%
112 | O=[N+]([O-])c1ccc(C2=Nn3c(nnc3-c3ccc(Cl)cc3)SC2)o1 | -9.9%
113 | CN1C(=S)NC(C)(C)CC1(C)c1ccc(O)cc1O (stereo not drawn) | -10.0%
114 | c1ccc2[nH]c(SCc3cscn3)nc2c1 | -4.3%
115 | O=C(c1ccco1)N1CCC2(CC1)CCN(c1ccccc1)CC2 | -9.1%
116 | CCC1CCCCN1CCCNC(=O)CNC(=O)Cn1ccc2ccccc2c1=O (stereo not drawn) | -10.0%
117 | C=CCC(C)(O)/C=C/c1ccccc1 (stereo not drawn) | -10.1%
118 | CS(=O)(=O)NN1C(=O)c2ccccc2NC1c1cc2ccccc2nc1Cl (stereo not drawn) | -6.6%
119 | CCOc1cc(C2C(C(=O)N3CCOCC3)=C(C)NC3=C2C(=O)CCC3)ccc1O (stereo not drawn) | ?
120 | COc1ccc(C2=Nc3ccc(Br)cc3C(c3ccccc3)N2CC(=O)NN)cc1 (stereo not drawn) | -19.1%
121 | Cc1c(N2C(=O)/C(=C\c3cccc4ccccc34)SC2=S)c(=O)n(-c2ccccc2)n1C | -14.1%
